Compound activity: PubChem BioAssay, several laboratories
Mtb hypoxia rep = PubChem AID 1159583. M. tuberculosis hypoxia-regulated fluorescent reporter, fluorescence. fluorescence inhibition, % (test concentration not listed). hit rate 0.1% among 300,000;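 active = 35 to 45% if threefold the growth effect, above 45% if 1.5-fold the growth effect; inactive = the rest, general growth blockers included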;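 also: wells of about 50 µL received 100 nL stock; 0% = vehicle wells and 100% = reference inhibitor wells; whole bacteria with a GFP reporter of the hypoxia response; strong numbers were not always called active; many hits fall short of the cut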
Sa RN4220 lethal = growth inhibition of S. aureus RN4220, primary screen, OD600. 16 h. hit rate 0.33% among 330,000. inhibition, % (no concentration beside the values). AID 1259311, 2017;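 active = z-score of -3 or lower and OD600 up to 0.18 on both plates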;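 also: plate controls were untreated cells for no effect and reference antibiotic for full effect; stock transfer was 100 nL into about 80 µL; one replicate is shown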
Bead autofluor = flagged as autofluorescent in microsphere protease counterscreen. hit rate 3.1% among 360,000. compound autofluorescence counterscreen, microsphere flow cytometry; stronger effect = higher value. fluorescence intensity (no concentration beside the values);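 active = at least 3 SD above the mean of all compounds, about 16000 in these data; inconclusive = too few beads counted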;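 also: 100 nL of 1 mM stock went into each well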
Sa ugtP lethal = growth inhibition of ugtP-null S. aureus, primary screen, RN4220 ugtP deletion, OD600 | hit rate 0.54% among 330,000 | growth inhibition, % (concentration not given with the values) | AID 1259309, 2017 | 16 h; some inactives read as strong as hits;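 active = z-score under -3 and OD600 up to 0.15 on both plates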;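 also: plate controls were untreated wells for no effect and antibiotic for full effect; wells of about 80 µL received 100 nL stock; the first replicate is given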
PrP 5UTR inh = inhibition of PrP 5' UTR reporter expression. cell-based PrP 5' UTR mRNA reporter, plate reader. inhibition, % (test concentration not listed). hit rate 0.35% among 340,000. AID 488862, 2010;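 active = every replicate at 50% or more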;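 also: 0 = median of the neutral control wells; tested in H4 reporter cells; numbers are from one replicate; inactives centre near -14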
BJeLR lethal = MLPCN primary cell-based screen for lethality selective to Ras in HRASV12 cells; hit rate 0.17% among 300,000; inhibition, % (test concentration not listed); BJeLR (HRASV12) viability, CellTiter-Glo ATP luminescence, 48 h; reference of the scale not given here; AID 1554, 2009;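 active = replicate mean above 50%; inconclusive = above 50% but judged a plate artefact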;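 also: 50 nL library stock added to about 25 µL; numbers are from one replicate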
Mtb hypoxia rep growth = also measured in Mtb hypoxia rep; calls as there; growth inhibition, %; measured here: M. tuberculosis growth (absorbance);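 0% = vehicle and 100% = reference antibiotic; read after six days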
Starred values were filed as active, the others as inactive; ? = inconclusive; / = not tested or not shown.

SMILES	Mtb hypoxia rep	Mtb hypoxia rep growth	Sa RN4220 lethal	Bead autofluor	Sa ugtP lethal	PrP 5UTR inh	BJeLR lethal
OCC1(Cc2cccc(Cl)c2)CCCN(Cc2sc(N3CCCC3)nc2Cl)C1 (stereo not drawn)	12.5	5.0	2.2	7397	18.2	-20.9	5.3
O=C(COC(=O)c1cc([N+](=O)[O-])ccc1NCCO)Nc1cccc(S(=O)(=O)N2CCCC2)c1	4.5	-3.9	1.9	4419	5.4	-23.2	-6.3
CCOc1ccccc1NC(=S)N1CCN(c2nc(-c3ccc(F)cc3)cs2)CC1	0.7	-3.9	-7.9	4143	-9.5	-10.0	-5.2
COc1cccc(C=NNC(=O)NC23CC4CC(CC(C4)C2)C3)c1O	-5.9	0.2	3.4	/	-2.3	/	/
Cc1ccc(SCC(=O)NCc2ccncc2)cc1	17.4	8.7	1.2	2470	7.7	-16.3	-15.2
CSc1ccccc1NC(=O)c1cc(Cl)sc1Cl	14.2	4.7	10.9	3507	4.5	/	-0.5
O=C(CN1CCOCC1)NCc1ccccc1	-4.1	13.4	-0.9	7755	-6.0	-16.9	11.3
CNC(=S)N=Nc1c(O)[nH]c2ccc(C(C)C)cc12	-0.8	-13.5	0.5	2404	-15.5	-0.1	7.0
COc1ccc(OC)c(NC(=O)c2c3c(nc4ccccc24)CCC3)c1	2.9	7.8	2.5	11938	-6.6	-60.0	-4.2
CCn1cc(C(=O)NC2CCCCC2C)c(=O)c2ccc(C)nc21 (stereo not drawn)	/	/	0.0	4248	-1.4	-15.7	6.2
CN(C)c1cccc(C(=O)NCC2CCCO2)c1 (stereo not drawn)	16.5	10.0	-4.9	2476	5.5	-26.8	-3.3
COC(=O)CSc1nnc(SCc2ccc(OC)cc2)s1	7.3	9.7	3.5	9828	10.3	-6.0	4.6
CCOC(=O)C1=C(N)Oc2cc(O)ccc2C1c1cccnc1 (stereo not drawn)	8.4	10.0	1.6	?	-0.1	-16.9	0.9
CCOc1ccc2nc(NC(=O)c3cc([N+](=O)[O-])ccc3N3CCOCC3)sc2c1	-8.4	11.1	1.9	2334	-16.4	-1.0	-8.9
CCN(CC)S(=O)(=O)c1ccc(-c2nnc(SCc3nnc(-c4ccc(C)cc4)o3)n2CC)cc1	-9.4	1.4	7.3	9385	-3.5	-12.7	0.9
C=CCn1c(SC(C)C(=O)NCCC2=CCCCC2)nc2ccccc2c1=O (stereo not drawn)	16.1	2.6	3.6	3352	-5.0	-6.1	-6.1
CC(C)CCSc1nc2c(c(=O)[nH]c(=O)n2C)n1CCCc1ccccc1	7.1	13.6	3.1	6307	-14.1	0.3	-3.9
OCCC1CN(CCCc2ccccc2)CCN1Cc1ccc(F)cc1 (stereo not drawn)	8.8	-5.8	-3.0	/	2.9	-18.6	1.5
COC(=O)c1ccc(CSc2nnc(C)s2)cc1	/	/	3.1	2480	0.1	-31.0	4.5
O=C(Cc1n[nH]c(=O)c2ccccc12)OCC(=O)c1ccc(F)c(F)c1	0.3	-1.0	4.7	4385	6.6	-18.8	6.5

4 entries drawn at random from those above, as already listed:
SMILES	Mtb hypoxia rep	Mtb hypoxia rep growth	Sa RN4220 lethal	Bead autofluor	Sa ugtP lethal	PrP 5UTR inh	BJeLR lethal
O=C(Cc1n[nH]c(=O)c2ccccc12)OCC(=O)c1ccc(F)c(F)c1	0.3	-1.0	4.7	4385	6.6	-18.8	6.5
CN(C)c1cccc(C(=O)NCC2CCCO2)c1 (stereo not drawn)	16.5	10.0	-4.9	2476	5.5	-26.8	-3.3
COc1ccc(OC)c(NC(=O)c2c3c(nc4ccccc24)CCC3)c1	2.9	7.8	2.5	11938	-6.6	-60.0	-4.2
C=CCn1c(SC(C)C(=O)NCCC2=CCCCC2)nc2ccccc2c1=O (stereo not drawn)	16.1	2.6	3.6	3352	-5.0	-6.1	-6.1

(next part)
SMILES	Mtb hypoxia rep	Mtb hypoxia rep growth	Sa RN4220 lethal	Bead autofluor	Sa ugtP lethal	PrP 5UTR inh	BJeLR lethal
COC(=O)C1=C(C)N(c2ccc(Br)cc2)C(=O)/C1=C\c1ccco1	/	/	/	11499	/	-19.0	-3.9
Cc1cnc(C(=O)Nc2nnc(C)s2)cn1	7.6	11.8	7.4	3650	5.9	-12.3	-9.9
Cn1c(=S)ccc2ccccc21	9.5	16.4	7.4	4520	10.6	-6.9	-5.4
Cc1cc2nc(C(F)(F)F)cc(-c3cccs3)n2n1	4.3	-1.5	5.5	5069	1.9	8.3	2.1
CC(NS(=O)(=O)c1ccccc1)C(c1cccs1)N1CCN(C)CC1 (stereo not drawn)	5.9	7.0	1.7	10675	0.6	-1.0	-3.8
Cc1cccc(NC(=S)NC23CN4CN(CN(C4)C2)C3)c1C	1.1	0.0	3.1	4753	7.8	-16.6	-1.6
CS(=O)(=O)N(CC(=O)NCC1CCCO1)c1ccc(Cl)c(Cl)c1 (stereo not drawn)	4.0	8.1	5.0	8255	3.8	9.8	-3.3
COc1cc(C(=O)Oc2ccc(Br)cc2C(=S)N2CCOCC2)cc(OC)c1OC	13.7	2.4	7.0	3829	1.4	-12.9	-6.8
CC(NC(=O)COC(=O)Cc1ccsc1)C1CC2CCC1C2 (stereo not drawn)	5.0	10.3	5.4	24292*	0.3	10.5	-1.1
Cc1[nH]c(=O)c(C#N)c2c1COC(C)(C)C2	7.6	7.2	6.0	4176	-4.8	-19.5	4.7
CCOC(=O)C1CCCN(C(=O)c2ccc(CS(=O)(=O)c3ccc(Br)cc3)o2)C1 (stereo not drawn)	/	/	-2.8	5469	-3.2	7.3	2.9
CCCC(=O)N(Cc1cc2cccc(C)c2[nH]c1=O)c1ccccc1OC	0.3	-2.5	3.0	8358	6.6	-19.6	-0.4
Cn1c(=O)n(C)c2cc(S(=O)(=O)N3CCN(c4ccccc4)CC3)ccc21	-0.9	2.1	7.6	4350	2.6	-14.8	-3.7
Cc1ccc(C)c(OCCC(=O)OCC(=O)c2c(N)n(C)c(=O)n(C)c2=O)c1	10.3	2.0	6.2	?	2.3	-18.1	-5.3
CC(C)C(=O)Nc1ccc(C(=O)Nc2ccc(Br)cc2F)cc1	2.5	4.9	7.5	4171	1.5	-21.9	8.4
CC(CC(=O)Nc1cc(Cl)ccc1Cl)=NNC(=O)c1ccco1	12.8	13.1	2.7	/	-8.4	/	/
CC(=NOC(=O)c1ccc(Cl)cc1)c1nccs1	4.9	2.3	-1.4	3722	5.5	/	/
CC(NC(=O)Nc1ccccc1O)(C(F)(F)F)C(F)(F)F	/	/	4.4	4648	-12.5	-23.4	-6.7
Cc1[nH]n(-c2ccc([N+](=O)[O-])cc2)c(=O)c1C=NCCN1CCN(C(=O)c2ccccc2)CC1	-2.3	7.8	-0.8	4301	-8.9	-24.1	11.4
CC(=O)C1CCC2C(CCC3=CC(=O)CCC32)C1 (stereo not drawn)	9.5	0.1	0.6	3364	5.8	/	/

Looked up above:
`Cn1c(=O)n(C)c2cc(S(=O)(=O)N3CCN(c4ccccc4)CC3)ccc21` – Mtb hypoxia rep: -0.9
`Cn1c(=S)ccc2ccccc21` – BJeLR lethal: -5.4

The results go on:
SMILES	Mtb hypoxia rep	Mtb hypoxia rep growth	Sa RN4220 lethal	Bead autofluor	Sa ugtP lethal	PrP 5UTR inh	BJeLR lethal
CCOC(=O)/C(=C/c1ccc(OC(=O)c2ccncc2)cc1)C(C)=O	-14.4	-3.3	3.1	4653	-6.8	-6.3	/
Cc1ccc(CNC(=O)CN2C(=O)NC3(CC(C)CC(C)(C)C3)C2=O)cc1 (stereo not drawn)	/	/	2.2	8554	2.3	2.1	/
CCCN(CCC)c1ncnc2c1cnn2-c1ccc(OC)cc1	14.3	20.2	3.1	?	-9.9	-120.6	-6.7
CCCCNc1nc2c(S(=O)(=O)c3ccccc3)nnn2c2ccccc12	3.7	7.5	-8.8	6934	1.6	-10.3	3.7
CCOC(=O)Cc1csc(NC(=O)CSc2ncnc3c2cnn3-c2ccc(OC)cc2)n1	-6.4	-0.4	13.4	3254	-17.6	-21.3	-3.8
COc1ccc(C2CC(=O)C3=C(C2)NC(C)=C(C(=O)Nc2ccccc2C)C3c2coc3ccc(C)cc3c2=O)cc1OC (stereo not drawn)	5.8	10.6	0.7	23361*	-0.5	-0.3	/
Cc1cc(C)n(C(=O)c2ccc(C)o2)n1	/	/	1.9	4780	-1.1	-20.8	-5.4
O=C(CSc1nnc(-c2ccccc2)o1)NC1CCCCC1	/	/	6.8	4783	4.9	-13.0	4.4
Cc1ccccc1Cn1c(=O)c2c(nc3n2CCN3Cc2ccco2)n(C)c1=O	12.2	8.9	6.3	5122	-0.5	-16.3	/
Cc1ccc(Cl)cc1N1CCN(C(=O)Cc2ccc(-n3c(=O)[nH]c4ccsc4c3=O)cc2)CC1	-8.9	-1.2	0.9	2536	2.3	-21.1	11.4
CC(=O)Oc1ccc(Nc2ccccc2)cc1	1.1	8.8	1.7	2456	-0.1	-19.3	-3.7
CCCCOc1ccc(C(C)NC(=O)CCS(=O)(=O)Cc2ccc(C)cc2)cc1 (stereo not drawn)	14.1	8.8	-0.5	2414	8.0	-14.5	-6.6
O=[N+]([O-])c1cc(C(F)(F)F)ccc1N1CCC(O)CC1	2.3	-3.9	1.2	4280	-3.2	-20.9	-17.6
Cc1ccc(S(=O)(=O)N2CCCCC2)cc1C(=O)N1CCCC1	1.4	-1.6	3.3	6226	4.4	-21.6	7.6
CCCCCCCCCCCC(=O)NC(C(=O)O)C(O)c1ccccc1 (stereo not drawn)	4.9	5.0	8.3	3283	14.7	-12.1	7.2
COc1ccc(S(=O)(=O)NCC(c2cccnc2)N2CCN(Cc3ccccc3)CC2)cc1C (stereo not drawn)	-1.2	9.8	1.1	6957	6.4	-14.7	2.1
Cc1cccc(N2CCN(CC(=O)NCC3CCCCC3)CC2)c1C	11.1	3.3	1.7	9301	1.5	-0.8	0.8
Cc1cc(C)nc(SCC(=O)Nc2ncc(C(F)(F)F)cc2Cl)n1	8.7	4.2	6.7	2433	8.7	-13.5	-1.9
CCOC(=O)Cc1csc(NS(=O)(=O)c2ccc(Cl)cc2)n1	3.7	-0.3	10.1	2162	3.2	-26.3	21.8
Cc1cc(NC(=O)c2ccccc2Cl)n(C(C)(C)C)n1	-4.4	-6.0	1.8	4311	15.3	-17.7	5.4
Cc1ccnc(NC(c2cccnc2)c2ccc3cccnc3c2O)c1 (stereo not drawn)	6.2	4.9	7.6	4052	2.7	-12.9	1.7
COC(=O)CSc1nc(SCc2ccc(C)cc2)nc2c1CCCC2	3.8	8.1	9.6	2876	39.5	-22.9	-3.4
COc1ccc(OC)c(C(=O)COC(=O)COc2ccccc2F)c1	-10.2	-6.4	4.3	/	2.4	-21.4	/
N#Cc1c(N=Cc2ccc(-c3ccc(C(=O)O)c(Cl)c3)o2)sc2c1CCCC2	17.2	8.0	0.2	/	-2.4	/	/
COC(=O)Cc1cc(=O)[nH]c(N=C(N)Nc2ccccc2C)n1	0.6	15.9	-3.7	/	-4.0	/	/
COc1cc(NC(=O)CSc2ccc(-c3ccco3)nn2)cc(OC)c1	6.6	2.0	3.4	5175	-4.8	-5.3	-9.1
CCn1c(C)nc2cc(S(=O)(=O)C(F)(F)F)ccc21	15.5	1.4	5.0	3078	11.5	-25.2	1.1
CC(=O)Oc1c(C)c2c3c(c1OC(C)=O)[C@@H](C)CC[C@@H]3[C@@H](C)C[C@H]2C=C(C)C	8.7	3.3	-10.0	3461	86.4*	-11.1	/
Cc1ccc(NC(=O)Cn2nnc(C(=O)NCc3ccc4c(c3)OCO4)c2N)cc1	3.2	-0.4	5.8	4187	-2.3	0.2	12.5
Cc1ccc(C(=O)N2CC(=O)Nc3ccc(F)cc3C2c2ccc(F)cc2)cc1[N+](=O)[O-] (stereo not drawn)	2.9	7.1	0.4	2020	-3.4	-13.6	4.0
O=C(CCCn1nnc2ccccc2c1=O)N[C@H](C(=O)O)c1ccccc1	-13.4	3.5	-1.4	6454	-8.4	6.9	-3.6
COc1cc(Br)cc(CNc2ccc(F)c([N+](=O)[O-])c2)c1O	13.2	12.9	-5.6	4432	-18.2	-43.6	2.7
COC(=O)c1ccc(NC(=O)CN2C(=O)C3C4C=CC(C4)C3C2=O)cc1 (stereo not drawn)	4.2	2.3	1.7	17210*	6.0	-49.1	6.5
O=C(CCC1N=C2c3ccccc3N=C(SCC(=O)NCc3ccco3)N2C1=O)NCc1ccco1 (stereo not drawn)	-9.0	4.6	-5.4	4261	-1.7	-36.8	0.1
COc1ccc(C(=O)NN=C2CCc3ccccc32)cc1OC	1.7	5.5	-0.3	/	3.9	/	/
COc1ccc(CNC(=O)Cc2cccs2)cc1OC	16.8	11.3	2.4	3938	7.0	-11.1	-0.1
